rRNA inh HTS: reduced GFP signal of wild-type E. coli, primary screen, bacterial rRNA inhibitor project, GFP/RFP fluorescence, OD600, single point. E. coli WT GFP vs humanized-ribosome RFP mutants, 24 h; hits give low values; DMSO median 0, no signal -100. GFP signal change (wild-type ribosome), % (test concentration not listed). 350,000 tested, 1.6% active;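 active = significant combined selectivity score with lowered wild-type GFP, culture density cut under 30%, mutant RFP and density less affected; inactive = any of these conditions unmet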; also: one replicate is shown; some compounds called inactive have numbers as strong as hits
ALR inh: inhibitors of human ALR sulfhydryl oxidase, primary screen, biochemical, H2O2 detection, HRP-luminol luminescence, single point | inhibition, % (concentration not given with the values) | purified ALR, DTT oxidation | 290,000 tested, 3.8% active;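 active = mean and each replicate at 75% or more; inconclusive = only one of the two met; inactive = neither met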;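 also: stock transfer was 7.5 nL into about 7.5 µL; 0% = neutral wells and 100% = wells with inactivated enzyme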
Target sequence (P55789 whole entry, looked up): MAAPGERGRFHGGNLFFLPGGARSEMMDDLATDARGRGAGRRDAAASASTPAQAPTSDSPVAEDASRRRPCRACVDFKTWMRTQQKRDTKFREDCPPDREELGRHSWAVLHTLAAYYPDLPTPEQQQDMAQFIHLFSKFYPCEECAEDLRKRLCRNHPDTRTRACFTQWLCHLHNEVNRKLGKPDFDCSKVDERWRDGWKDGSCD
Vif A3G: inhibitors of Vif binding to APOBEC3G peptide, primary screen, biochemical, TR-FRET, GST-Vif 1-94, biotin-A3G peptide, dose response retest (AID 1117319). Virion infectivity factor (Human immunodeficiency virus type 1 group M subtype B (isolate …. inhibition, %, or IC50 in µM where a hit was titrated. 260,000 tested, 0.57% active. TR-FRET GST-Vif / biotin-A3G peptide binding; higher % means a stronger effect; test concentration not given here; strong numbers were not always called active;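 active = above the screen mean plus three standard deviations and confirmed in dose response; inconclusive = results disagree or hit not tested in dose response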;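 also: Vif residues 1-94 fused to GST binding biotinylated APOBEC3G peptide 110-148; 0% = full assay without inhibitor and 100% = GST in place of GST-Vif; retest series ran down from 100 µM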
HNF4A DNA FP: change in binding of human HNF4A to DNA, primary screen, biochemical, fluorescence polarization, FITC-DNA | Hepatocyte nuclear factor 4-alpha (Homo sapiens), P41235 | 1 h | activity change, % at 10 µM | 360,000 tested, 0.3% active; in the data active = activity change above about 30%, passing the limit was not always enough;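 also: controls were the assay level and a saturating level of protein; the project sought stronger binding though the title names inhibitors; some compounds called inactive have numbers as strong as hits; positive values seem to mean higher polarization but the record does not say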
Target sequence (P41235 whole entry, looked up): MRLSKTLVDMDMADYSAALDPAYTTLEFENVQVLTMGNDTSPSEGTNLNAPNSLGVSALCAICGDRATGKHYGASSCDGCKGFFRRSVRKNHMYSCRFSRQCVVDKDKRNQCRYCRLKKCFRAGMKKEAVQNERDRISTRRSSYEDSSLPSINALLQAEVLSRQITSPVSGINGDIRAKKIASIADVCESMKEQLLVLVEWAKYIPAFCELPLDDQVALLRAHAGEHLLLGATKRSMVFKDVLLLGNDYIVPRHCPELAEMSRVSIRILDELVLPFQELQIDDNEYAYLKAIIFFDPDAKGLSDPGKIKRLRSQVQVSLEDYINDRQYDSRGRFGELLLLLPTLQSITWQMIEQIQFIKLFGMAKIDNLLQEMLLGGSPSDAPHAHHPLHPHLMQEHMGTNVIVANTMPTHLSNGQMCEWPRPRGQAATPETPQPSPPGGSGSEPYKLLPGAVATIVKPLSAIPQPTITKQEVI
AF4-AF9 inh: inhibitors of AF4 peptide binding to AF9, primary screen, biochemical, AlphaScreen, biotin-AF4 peptide, FLAG-AF9, single point; 350,000 tested, 0.47% active; inhibition, % at 10 µM; Protein AF-9 (Homo sapiens), P42568; AID 651704, 2012;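 active = every replicate reaching a set inhibition limit, whatever the replicate mean, cut at about 25% in these data; inconclusive = mean inhibition reaches that limit but some replicates miss it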;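 also: 0% = plate neutral control median and 100% = total signal loss; the record names both 10 and 1 µM as test concentration; the first replicate is given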
FGF22 binding: binders of human FGF22 protein, primary screen, FGF22 synaptogenesis inhibitor project, biophysical, thermal shift, single point | recombinant FGF22 thermal shift, SYPRO orange fluorescence; percent of sucrose octasulfate shift, DMSO zero | calls only at 9.99 µM | 340,000 tested, 1.5% active;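 active = melting point raised past a set limit in the mean and every replicate; inconclusive = no clear call; three in four hits are not shown here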
Target sequence (Q9HCT0 whole entry, looked up): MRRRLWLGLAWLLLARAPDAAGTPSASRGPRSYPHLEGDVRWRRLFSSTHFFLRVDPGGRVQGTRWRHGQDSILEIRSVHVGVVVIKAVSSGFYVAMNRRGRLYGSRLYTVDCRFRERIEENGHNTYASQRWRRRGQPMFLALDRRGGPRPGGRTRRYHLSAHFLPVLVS
Ecoli growth: E. coli growth inhibition, primary screen, OD600 | Escherichia coli growth, 23 h; hits give low values | 330,000 tested, 0.21% active | AID 1053175, 2014 | OD600 absorbance (concentration not given with the values);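 active = OD600 absorbance below the run mean of sample wells minus 3.6 SD, in any replicate, cut at about 0.56 in these data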;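 also: stock transfer was 300 nL into about 60 µL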
rRNA inh HTS OD600: second read-out of rRNA inh HTS, no call of its own (marks repeat the call); OD600 change, %; measured here: OD600 growth;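 optical density of the mix in the first replicate; 0 = DMSO median and -100 = no signal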
rRNA inh HTS RFP: also measured in rRNA inh HTS; calls as there; RFP signal change, %; measured here: RFP humanized mutant strains;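 first replicate; 0 = DMSO median and -100 = no signal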
An asterisk follows results filed as active; i = inactive; ? = inconclusive; . = no result given. The list is partial; the hit share may differ from the screen's.

Order of values – rRNA inh HTS | rRNA inh HTS OD600 | rRNA inh HTS RFP | ALR inh | Vif A3G | HNF4A DNA FP | AF4-AF9 inh | FGF22 binding | Ecoli growth
> COc1cc2ccccc2cc1C(=O)N1CCN(c2ccccc2O)CC1
→ . | . | . | 63 | 66% | -1.1 | 3.8 | i | 0.68
> O=S(=O)(Nc1ccc(N2CCOCC2)cc1)c1ccc(F)cc1F
→ 5 | 5 | 5.1 | 20 | ? | -0.4 | 1.4 | i | 0.69
> O=C(CC1C(=O)NCCN1CC1CCCCC1)NCc1cccc(F)c1F (centres undefined)
→ 3 | 6 | 3.8 | . | 6% | 3.0 | -5.1 | i | 0.71
> COc1ccc(-n2c(SCC(N)=O)nc3sc4c(c3c2=O)CCN(C)C4)cc1
→ . | . | . | -6 | 12% | 11 | . | . | 0.78
> CC(C)(C)CC(=O)Nc1ccc(-c2cn3cccnc3n2)cc1
→ -7 | -6 | -13 | 7 | -6% | 1.2 | -8.3 | i | 0.64
> Cc1ccc(NC(=O)C2CC(=O)Nc3nc4ccccc4n32)c(C)c1 (centres undefined)
→ 11 | 9 | -0.4 | . | -2% | 1.2 | -1.1 | i | 0.66
> CC(C)c1ccc(OCCCN2CCC(C(O)(c3ccccc3)c3ccccc3)CC2)cc1
→ -53 | -77 | -15 | . | . | . | 9.0 | i | .
> CC(C)(C)NC(=O)CN(Cc1ccco1)C(=O)CCC(=O)Nc1nccs1
→ 4 | 8 | 1.5 | -27 | . | -0.7 | -3.8 | i | 0.67
> CCCCNC(=S)N/N=C/c1sccc1C
→ 9 | 2 | 3.5 | -8 | -8% | -5.0 | 4.0 | i | .
> Cc1nc(NC(=O)CSc2nnc(N)s2)c(Cl)cc1Cl
→ 3 | -6 | 0.8 | 2 | 9% | -0.9 | -2.7 | i | 0.67
> CN(C)C(=O)c1cccc(-c2ccccc2[C@H]2[C@@H](C#N)N(C(=O)C3CC3)[C@H]2CO)c1
→ 2 | 14 | 4.5 | . | . | . | 1.5 | i | .
> COC(=O)c1ccccc1OCC(=O)NC1CCCCC1
→ . | . | . | -3 | 5% | 2.2 | . | . | 0.66
> CC(=O)OC1CC(C)(C)N(OC(=O)CCCN2C(=O)c3ccccc3C2=O)C(C)(C)C1
→ . | . | . | 0 | -8% | -1.3 | . | . | 0.73
> CC(C)(C)OC(=O)N(Cc1ccccc1)Cc1ccccc1OCc1cccc(NC(=O)c2ccccc2)c1
→ 10 | -1 | -5.6 | . | -3% | -1.1 | -5.8 | i | .
> Cc1ccc(C)c(NC(=S)N(C)CCc2ccccn2)c1
→ . | . | . | -9 | -1% | 2.7 | . | . | 0.69
> CCCCSC(=S)N(C)C1CCS(=O)(=O)C1 (centres undefined)
→ . | . | . | . | 27% | 1.2 | . | . | 0.68
> N#Cc1ccccc1S(=O)(=O)N1CCN(C(=O)CCC2CCCC2)CC1
→ . | . | . | 4 | . | 4.8 | 0.3 | i | 0.62
> Cc1ccc(NC(=S)NCc2cccs2)cc1
→ . | . | . | . | 0% | 0.7 | . | . | 0.71
> Cc1nn(-c2ccc(C(F)(F)F)cn2)c(C)c1Oc1ccccc1O
→ . | . | . | 2 | 0% | 0.5 | . | . | 0.69
> CC(C)C(NS(=O)(=O)c1cccs1)C(=O)N1CCc2ccccc2C1 (centres undefined)
→ . | . | . | 2 | 1% | -1.5 | . | . | 0.68
> Cc1cc(O)c(NC(=O)c2ccco2)cc1C
→ . | . | . | 19 | -1% | -0.8 | . | . | 0.62
> CCN(CC(=O)Nc1cc(Cl)ccc1C)c1ncnc2sc(C)c(C)c12
→ -34 | -37 | 3.2 | . | . | 0.2 | -0.5 | i | 0.67
> Cc1noc(C)c1COC(=O)CCN1c2ccccc2Sc2ccccc21
→ . | . | . | 93* | 6% | -1.0 | . | . | 0.71
> CCOc1ccc(N(CC(=O)Nc2ccccc2C(=O)N2CCCC2)S(C)(=O)=O)cc1
→ -2 | -1 | -1.1 | -4 | . | -2.6 | -2.2 | i | 0.7
> CN(CC(=O)Nc1cccc(F)c1)C(=O)CSc1nc2ccccc2s1
→ -9 | -14 | -1.6 | 6 | 5% | 3.5 | 0.8 | i | 0.66
> COc1ccc(NC(=O)N(C)C[C@@H]2OCCCC[C@@H](C)Oc3ccc(NC(=O)CCCN(C)C)cc3C(=O)N([C@@H](C)CO)C[C@H]2C)cc1
→ 2 | 4 | -0.4 | . | . | . | -0.3 | i | .
> CC(=O)Nc1ccccc1-c1nc2ccccc2nc1OCC(=O)c1ccc(Br)cc1
→ . | . | . | -1 | 2% | -2.5 | . | . | 0.73
> O=C1NN=C(c2ccccc2)CC1c1c[nH]c2ccccc12 (centres undefined)
→ -26 | -29 | -3.6 | -5 | . | 3.3 | 4.2 | i | 0.62
> Cc1ccc(-n2nnc3c(=O)oc4ccccc4c32)cc1
→ . | . | . | -5 | 6% | 0.1 | . | . | 0.72
> CCN=C1SC(CC(=O)Nc2ccccc2OCC)C(=O)N1CC (centres undefined)
→ . | . | . | -15 | -6% | 0.7 | . | . | 0.66

Profiles from above. Screens in order: rRNA inh HTS, rRNA inh HTS OD600, rRNA inh HTS RFP, ALR inh, Vif A3G, HNF4A DNA FP, AF4-AF9 inh, FGF22 binding, Ecoli growth
Cc1ccc(C)c(NC(=S)N(C)CCc2ccccn2)c1 is entered as ., ., ., -9, -1%, 2.7, ., ., 0.69
COc1ccc(-n2c(SCC(N)=O)nc3sc4c(c3c2=O)CCN(C)C4)cc1 is entered as ., ., ., -6, 12%, 11, ., ., 0.78

(more compounds)
Order of values – rRNA inh HTS | rRNA inh HTS OD600 | rRNA inh HTS RFP | ALR inh | Vif A3G | HNF4A DNA FP | AF4-AF9 inh | FGF22 binding | Ecoli growth
> COc1ccc(CC(=O)NNc2ncnc3c2cnn3-c2ccc(C)cc2)cc1
→ . | . | . | 3 | 0% | 0.0 | . | . | 0.71
> Cc1cc(C)n2nc(C)c(-c3ccccc3)c2n1
→ -5 | 1 | -2.1 | -6 | . | -2.1 | -6.1 | i | 0.63
> Cn1nnc(NC(=O)c2cccc(OCc3ccccc3)c2)n1
→ . | . | . | -4 | 3% | 2.6 | . | . | 0.71
> O=C(N/N=C/c1cccc([N+](=O)[O-])c1)c1cccc(Br)c1
→ 5 | 7 | 0.1 | 46 | -2% | -3.6 | 3.4 | i | .
> Cn1c(SCC(=O)Nc2ccccc2F)nnc1-c1ccc(S(=O)(=O)N2CCOCC2)cc1
→ . | . | . | . | 2% | -1.9 | . | . | 0.69
> CN(C)C(=O)Cn1c(SCC(=O)Nc2ccc3c(c2)OCO3)nc2ccccc21
→ . | . | . | -19 | -3% | 3.8 | . | . | 0.77
> Cc1ccn2c(CNCc3cnn(C)c3)c(C(=O)N3CCCCCC3)nc2c1
→ 7 | 3 | 4.6 | 2 | -2% | 1.7 | 1.8 | i | 0.66
> CN(C(=O)COC(=O)CSCc1cccc(Cl)c1)c1c(N)n(Cc2ccccc2)c(=O)[nH]c1=O
→ 8 | 8 | 0.6 | -10 | 8% | 0.1 | -4.9 | i | 0.71
> C[C@H]1CN([C@@H](C)CO)C(=O)c2cc(-c3cccc(C#N)c3)cnc2O[C@H]1CN(C)C(=O)C1CCOCC1
→ -1 | 13 | -0.7 | . | . | . | -3.0 | i | .
> COc1cc2c(=O)n(CCC(=O)NCC3CCCO3)c(=O)n(CC(=O)Nc3ccc(C)cc3C)c2cc1OC (centres undefined)
→ 5 | 7 | -2.2 | 2 | -1% | 1.1 | -1.2 | i | 0.67
> COc1ccc(-c2cnc(N)n2C)cc1
→ 19 | 17 | 1.6 | -4 | 6% | -0.7 | 11 | i | 0.69
> COc1cc(COc2ccc3c(C)c(CCC(=O)O)c(=O)oc3c2)cc(OC)c1OC
→ -7 | 2 | 0.0 | 3 | -9% | -5.4 | -2.6 | i | 0.69
> Cc1ccc(CN2C(=O)CCC2C(=O)NCc2ccc3c(c2)OCO3)cc1 (centres undefined)
→ . | . | . | -1 | -2% | -1.8 | . | . | 0.69
> NC(=O)C1CCN(c2nc(-c3cccc(N)c3)cs2)CC1
→ . | . | . | 20 | . | 3.4 | . | . | 0.68
> O=c1[nH]c(CN2CCc3ccccc32)nc2scc(-c3cccs3)c12
→ . | . | . | -7 | -1% | 7.8 | . | . | 0.73
> CCOC(=O)c1sc(NC(=O)c2ccccc2C(=O)O)c(C(=O)OCC)c1C
→ -15 | -9 | 13 | 1 | -10% | -2.3 | 2.4 | i | 0.66
> CN1CCN(C(=O)C[C@@H]2C[C@H]3c4cc(NC(=O)Nc5ccc(F)cc5)ccc4O[C@H]3[C@@H](CO)O2)CC1
→ 7 | 7 | -2.3 | . | . | . | 2.1 | i | .
> COc1ccc(-n2nnnc2CNC(=O)C2CC(=O)N(c3ccc(F)cc3)C2)cc1 (centres undefined)
→ 17 | 23 | 3.1 | . | . | -1.7 | -2.5 | i | .
> Cc1cnc(CNC(=O)c2csc(COCCO)n2)cn1
→ 7 | 13 | -1.8 | . | . | -4.8 | -0.7 | i | .
> Cc1ccc(CN2CCN(CC(C)C)C(CCO)C2)s1 (centres undefined)
→ 16 | 15 | -1.4 | -11 | 10% | 0.3 | 1.7 | i | 0.66
> C[C@H](CO)N1C[C@H](C)[C@H](CN(C)C(=O)Nc2ccccc2)Oc2c(NC(=O)CCCCCC(=O)Nc3ccccc3N)cccc2C1=O
→ 2 | 6 | -3.1 | . | . | . | -1.6 | i | .
> COP(=O)(OC)C(NC(=O)Nc1ccccc1)c1ccccc1 (centres undefined)
→ 8 | 8 | 13 | -7 | -13% | 1.2 | -12 | i | 0.74
> COCCn1c(SCC(=O)Nc2cccnc2Cl)nc2ccccc21
→ -4 | 5 | -0.9 | . | . | -2.0 | -2.0 | i | 0.68
> O=C(C[C@@H]1CC[C@H](NC(=O)CN2CCOCC2)[C@H](CO)O1)NC1CCC1
→ 2 | 1 | -0.8 | . | . | . | -3.2 | i | .
> CCOC(=O)N1CCN(C(=O)c2ccc3c(c2)N=C(CC)c2cc(C)ccc2S3)CC1
→ 0 | -6 | -0.4 | . | -4% | 2.4 | 0.7 | i | 0.68
> CC(C)(C)c1cc(S(=O)(=O)CCc2ccccn2)cc(C(C)(C)C)c1F
→ -29 | -56 | -2.8 | -9 | -4% | 0.6 | -17 | i | 0.66
> CCOC(=O)C1CCN(C(=O)c2cc3cc4ccc(OC)cc4nc3o2)CC1
→ -2 | 1 | 0.0 | -3 | . | 2.6 | -0.3 | i | 0.68
> COc1cccc(C#CC2=CC(=O)CC(C)(C)C2)c1
→ -19 | -37 | -0.5 | . | . | 0.4 | 4.3 | i | .
> C[C@@H]1CCCCO[C@@H](CN(C)C(=O)Nc2cccc3ccccc23)[C@H](C)CN([C@@H](C)CO)C(=O)c2cc(NC(=O)Nc3ccc(F)cc3)ccc2O1
→ 5 | 13 | 2.6 | . | . | . | -1.3 | i | .
> O=C(NCC[C@@H]1CC[C@H](NS(=O)(=O)c2cccc(F)c2)[C@H](CO)O1)c1cnccn1
→ 1 | 2 | 3.1 | . | . | . | -0.7 | i | .
> Cc1ccc2nc(SCC(=O)NCc3ccccc3Cl)nc(=O)n2c1
→ 3 | 0 | 1.7 | . | 3% | -2.4 | -1.1 | i | 0.67

Screening results (PubChem BioAssay)
